# High-throughput results as filed in PubChem BioAssay.
# HPGD inh: inhibitors of human 15-hydroxyprostaglandin dehydrogenase (HPGD). P15428. purified HPGD, NADH fluorescence kinetic, PGE2 substrate. Potency, µM, without a hit: at the top dose activity change, negative = inhibition, actives largely listed as inhibitors. actives 4.3% (n = 150,000). AID 894; active = well fitted inhibition curve with a large enough effect (not every such curve was filed as active); inconclusive = small, poorly fitted or top-dose-only effect, or another doubt; inactive = no such curve, though single readings can be large or run the other way;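 also: top concentration of the series not given in the record; plate controls included wells without enzyme; inactives centre near -10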
# Target sequence (P15428 whole entry, looked up): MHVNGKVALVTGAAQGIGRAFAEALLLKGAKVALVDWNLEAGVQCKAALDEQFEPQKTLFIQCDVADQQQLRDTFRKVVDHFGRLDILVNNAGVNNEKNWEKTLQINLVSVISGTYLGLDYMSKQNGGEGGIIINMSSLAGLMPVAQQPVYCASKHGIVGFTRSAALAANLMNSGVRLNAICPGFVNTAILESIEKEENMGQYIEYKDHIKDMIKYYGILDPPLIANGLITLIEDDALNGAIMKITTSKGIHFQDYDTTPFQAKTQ
#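 NADH formation kinetics: reaction with 30 uM PGE2 and 1 mM NAD+ (final), 20 nM enzyme, Tris-HCl pH 8 with Tween 20, after 15 min compound preincubation at room temperature. Fluorescence change, last versus first of five reads.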
# * hit, by the source's call; ? = inconclusive; [ ] = dose if it differs, or a comment. % is scaled to controls: 0 for no effect and ±100 for the full control effect; potency is read from the fitted curve at half-maximal effect.
SMILES,HPGD inh
CCn1nc(C(=O)OCC(=O)N2CCc3ccccc32)c2ccccc2c1=O,-23%
Cc1cccc(-n2c(C)cc(/C=N/n3cnnc3)c2C)c1,-8%
Cc1cc(Cl)ccc1OCC(=O)Nn1c(C)ccc1C,-18%
O=C(CSc1ncccc1-c1nc2ccccc2[nH]1)N1CCN(c2ccccc2F)CC1,?
COc1c2c(cc3c1C(c1c(O)c4ccccc4oc1=O)N(C)CC3)OCO2 (configuration not stated),?
Cc1[nH]n(-c2ccccc2)c(=O)c1/C=N/Nc1nncc(-c2ccccc2)n1,-28%
Cc1cccn2c(=O)c3cc(C#N)c(=NC(=O)c4ccncc4)n(Cc4ccco4)c3nc12,?
CCC(C)NC(=O)c1c(C)cc(=O)oc1C (configuration not stated),-17%
CCCC[C@H]1C[C@@H]1[C@@H]1N(C(C)=O)[C@H](c2cccc(OC)c2)CC12CC2,-10%
O=C(CN1CCc2ccccc21)NCc1ccc2c(c1)OCO2,-18%
CC1=CN2C(=NC(=O)CC2(C)C(=O)N(CC(=O)NC2CCCC2)c2ccccc2C)C=C1 (configuration not stated),?
COc1ccc(NC(=O)N2CCCC3(CCN(C(=O)c4cc(C(F)(F)F)cc(C(F)(F)F)c4)CC3)C2)cc1,-7%
COc1ccc(CC(=O)Nc2cccc(-c3nnc(-c4cccc(C)c4)o3)c2)cc1OC,?
C/C(=N\NC(=O)CCC(=O)Nc1ccccc1)c1cccs1,-11%
CN(C)S(=O)(=O)c1ccc(C(=O)N2CCC(c3nc4ccccc4o3)CC2)cc1,-6%
CC(NC(=O)c1ccccc1Br)c1ccc2c(c1)CCCC2 (configuration not stated),-17%
Cn1c(=O)c2c(nc(SCC(=O)N3c4ccccc4CCc4ccccc43)n2C)n(C)c1=O,-12%
Cn1c(SCC(=O)c2ccc3c(c2)Cc2ccccc2-3)nnc1-c1ccccc1,-17%
COc1ccc(C(=O)n2nnc3ccccc32)cc1OC,-12%
COc1ccccc1OC(C)C(=O)O (configuration not stated),-6%
O=C(CCC1COc2ccccc2O1)NCc1ccccc1 (configuration not stated),-22%
CCOCCn1c(=NC(=O)/C=C/c2ccccc2Cl)sc2cc(NC(C)=O)ccc21,79%[activator]
CC(=O)N1CCN(c2ccc(S(=O)(=O)N3CCCCC3)cn2)CC1,-29%
Cc1nn(C)c(C)c1NC(=O)CSc1nc(-c2ccccc2Cl)nc2c1cnn2-c1ccccc1,-22%
Cc1c(C(=O)N2CCCCC2)sc(NC(=O)c2ccco2)c1C#N,16µM*
CCC(=O)N1CCc2cc(S(=O)(=O)N3CCc4ccccc43)ccc21,-18%
COc1cc(/C=C/C(=O)NNc2c(F)c(F)cc(F)c2F)ccc1OC(F)F,-5%
Cc1cc(Br)c(OCc2ccc(C(=O)N/N=C3\CC4CC=CC34)cc2)c(Br)c1 (configuration not stated),13µM*
CC(OC(=O)c1ccccc1N1C(=O)C2C3CCC(C3)C2C1=O)C(=O)c1ccccc1 (configuration not stated),-11%
COc1ccccc1CNC(=O)C1CCN(S(=O)(=O)c2c(C)noc2C)CC1,-8%
COc1cc(C2CC(C(F)(F)F)n3ncc(C(=O)O)c3N2)cc(OC)c1OC (configuration not stated),-9%
CCCN1C(=S)SC(C)(C)C1/[N+]([O-])=C/c1cccnc1 (configuration not stated),-13%
CCn1c(CNC(=O)c2ccco2)nnc1SCC(=O)Nc1cc(C)c(C)cc1Br,-1%
COc1ccc(OC)c(NC(=O)CSc2nnc(CCCO)n2-c2ccccc2)c1,0%
Nn1cnc2c([nH]c3ccccc32)c1=O,-21%
CCOc1ccc(OC(=O)NC(c2ccccc2)C(Cl)(Cl)Cl)cc1 (configuration not stated),-13%
O=C(NCc1ccccc1)C(c1ccc(O)cc1)N(C(=O)Cn1nnc(-c2cccs2)n1)c1ccc2c(c1)OCCO2 (configuration not stated),-12%
O=C(COC(=O)C1CCN(S(=O)(=O)c2ccccc2C(F)(F)F)CC1)NCc1ccc(F)cc1,-17%
CCOC(=O)/C=C(\C)Sc1cc(=O)oc2ccccc12,?
COc1ccc(C(=O)Cn2c(Br)nc3c2c(=O)n(C)c(=O)n3C)cc1OC,-5%
O=C(O)C1C2C=CC(C2)C1C(=O)Nc1cccc(F)c1 (configuration not stated),-11%
Nc1nsnc1C(=O)NCCO,-26%
O=C(CNC(=O)c1ccco1)NCC(=O)OC(C(=O)c1ccccc1)c1ccc(Cl)cc1 (configuration not stated),-22%
Cc1cc(C)nc(SCCC(=O)N(C)C)n1,-15%
COc1cc2c(C(=O)N3CCN(C4CCCCC4)CC3)cn(CC(C)C)c(=O)c2cc1OC,-8%
CCNC(=S)NCCN1CCCCC1,0%
CCOc1cc(C(=S)N2CCOCC2)ccc1OS(=O)(=O)c1ccccc1,-12%
O=C(Nc1ccn(-c2ccccc2)n1)c1ccc(S(=O)(=O)N2CCCCCC2)cc1,?
Cc1ccc(Cl)cc1N1CCN(C(=O)C2CCN(S(=O)(=O)c3c(C)nn(C)c3C)CC2)CC1,-11%
Nc1ccccc1-c1nc2ccccc2[nH]1,?
COc1ccc(S(=O)(=O)N2CCN(C(=O)NCc3ccccc3)CC2)cc1,-11%
COCC(=O)Nc1cc([N+](=O)[O-])ccc1C,5%
COc1ccc(NC(=O)OC(C)C)cc1,?
Cc1cc(N/C=C/C(=O)c2cccc3ccccc23)no1,-28%
CCOc1ccc(C(=O)N2CCSC2=S)cc1,-22%
Cn1cc([N+](=O)[O-])c(C(=O)Nc2ccc3c(c2)OCCO3)n1,-3%
CCOc1ccc(CNc2ccc3c(c2)ncn3C)cc1,?
C=CCNC(=O)c1sc(SC)cc1-c1ccc(Cl)cc1,-23%
CCOC(=O)/C(C#N)=C/c1ccc(OC(=O)c2ccccn2)cc1,-15%
C=C(C)C(=O)OC1(C(F)(F)F)Oc2cc(C)ccc2NC1=O (configuration not stated),-9%

# Arranged by length of the SMILES (highest first): some entries from above
SMILES,HPGD inh
Cn1c(=O)c2c(nc(SCC(=O)N3c4ccccc4CCc4ccccc43)n2C)n(C)c1=O,-12%
COc1ccccc1CNC(=O)C1CCN(S(=O)(=O)c2c(C)noc2C)CC1,-8%
CCC(C)NC(=O)c1c(C)cc(=O)oc1C (configuration not stated),-17%

# More compounds follow.
SMILES,HPGD inh
O=C1c2ccccc2C(=O)c2c1ccc(C(=O)O)c2-c1ccc2ccccc2c1,-5%
O=[N+]([O-])c1ccc(O)c(C=Nc2ccc3c(c2)OCCO3)c1,?
CCCCCCCCCC(=O)N[C@H](CN1CCOCC1)[C@H](O)c1ccccc1,-5%
COc1ccccc1N1CCN(CC(O)COc2ccc3c(C)cc(=O)oc3c2)CC1 (configuration not stated),?
CN1C2C=C3C(C#N)=C(N)C(C#N)(C#N)[C@@H](c4ccsc4)[C@@H]3C1CC2 (some centres not stated),-10%
OCCNc1nc2ccc(Cl)cc2[nH]1,-11%
Cc1ccc2c(C)[nH]c(=O)cc2c1,-13%
Cc1ccc(C(C)C)cc2c(C)ccc1-2,-7%
O=C(Cc1c[nH]c2ccccc12)N1CCc2ccccc21,-5%
Cc1cccc(OCCC(=O)Nc2ccc(S(=O)(=O)N3CCCC3)cc2)c1,-14%
C(=C\c1cc(/C=C/c2ccccc2)ncn1)/c1ccccc1,?
Cc1ccc(C)n1NC(=O)c1ccco1,-2%
O=C(CC(=O)N/N=C/c1ccc(Cl)cc1Cl)NCc1ccccc1,-6%
COc1ccc2cc(C)c(SCC(=O)Nc3cc(C)on3)nc2c1,-27%
COc1cccc(NC(=S)Nc2cccnc2)c1,-2%
CNC(=O)Nc1ccc2snnc2c1,?
O=C(CSc1nc2ccccc2o1)NCc1n[nH]c(=O)c2ccccc12,-15%
CCc1ccc(NC2=NC(C(=O)c3ccccc3)CC(=O)N2)cc1 (configuration not stated),-13%
Cc1cccc(N2CCN(C(=O)C(Cc3ccccc3)n3cccc3)CC2)c1C (configuration not stated),-3%
CCOC(=O)CCCNC(=O)N1CCc2nc(-c3ccc(OC)cc3C)c3c(c2C1)CO[C@@H](c1ccccc1)C3,-4%
O=C(O)CC(c1ccccc1)n1cccc1 (configuration not stated),-10%
CCOC(=O)c1ccc(NC(=O)CC2C(=O)N(c3ccccc3)C(=O)N2CCCOC)cc1 (configuration not stated),-8%
CNC(=O)C1CC(=O)N/C(=N/N=C(\C)c2cccs2)S1 (configuration not stated),-11%
COC(=O)c1cn(NC(=O)c2ccc3c(c2)OCO3)c(=O)c2ccccc12,-7%
O=C(CSc1nnc2n1CCCN2C(=S)Nc1ccc(Cl)cc1)c1ccccc1,-12%
Cn1c(O)c(N=Nc2nc(-c3ccccc3)cs2)c2ccccc21,?
COc1ccc(/C=C2\CCCC3C2=NN(C(=O)CSc2ncn[nH]2)C3c2ccc(OC)cc2)cc1 (configuration not stated),-21%
COc1ccc(NC(=O)C2CCC(=O)N2S(=O)(=O)c2ccc(C)cc2)c(OC)c1 (configuration not stated),-7%
Nc1cc(C(=O)N2CCCC2)cc(C(=O)N2CCCC2)c1,-13%
O=C(C1CCC1)N1CCN(Cc2ccccc2)CC1,-6%
Cn1c(NC(=O)c2cccc(Cn3cc(Cl)cn3)c2)nc2ccccc21,?
CC(C(=O)Nc1ccccc1-c1ccccc1)N1CCCCC1 (configuration not stated),-17%
Cn1cnnc1SC/C(O)=C(\C#N)c1nc2ccccc2[nH]1,-11%
Cc1ccc(C(=O)N2NC(c3ccc(F)cc3)C3C(=O)N(c4ccc(C)c(C)c4)C(=O)C32)cc1 (configuration not stated),?
c1ccc(CNc2nc(CN3CCOCC3)nc3scc(-c4ccccc4)c23)cc1,-10%
O=C1CC(c2cc3c(cc2Br)OCO3)C2=C(CCCC2=O)N1 (configuration not stated),4%
CCNC(=O)CN(C1CCCCC1)S(=O)(=O)c1ccc(F)cc1,-13%
CN1CCC2(CC1)CCN(S(=O)(=O)c1ccccc1)CC2,-3%
COc1ccc(N=C(N)SCc2ccccn2)cc1,-7%
CC(C)=CC(=O)Nc1nnc(-c2ccc(F)cc2)s1,-15%
CCOC(=O)C1=C(CN2CCSCC2)NC(=O)NC1c1cc(C)ccc1C (configuration not stated),-5%
CCOc1cc(CNc2ccc3cn[nH]c3c2)ccc1OC,-10%
CCSC1=NC(C)(C)C=C(/C=C/c2ccc(Cl)cc2Cl)N1,-25%
Cc1cccc(C(=O)N[C@H](C(=O)Nc2nnc(C3CC3)s2)C(C)C)c1,-6%
Cc1cc2occ(CC(=O)O)c2cc1C,-1%
COC(=O)Cn1nc(-c2ccccc2)c2ccccc2c1=O,-5%
CCOC(=O)C1CCN(Cc2ccccc2C(F)(F)F)CC1,-5%
CC(=O)Nc1c(C)ccc2nsnc12,-4%
C=CCNC(=O)c1onc(CSc2ccc(OC)cc2)c1C(=O)O,-21%
Cc1cc(/C=C2\SC(N)=NC2=O)c(C)n1-c1ccccc1,-13%
CNc1oc(-c2ccco2)nc1C#N,?
Cc1nc(NC(CC(C)C)C(=O)O)c2nc(C)oc2n1 (configuration not stated),-10%
CC(=O)c1c(C)c[nH]c1C,-5%
CC(=O)[C@@H]1[C@@H]2C(=O)N(C3CCCCC3)C(=O)[C@@H]2C2c3ccccc3C=CN21 (some centres not stated),?
O=C(O)c1ccc(COc2ccccc2Cl)cc1,13µM*
COCC(C)NC(=O)NC(=O)c1ccc(Cl)cc1 (configuration not stated),-2%
CN1CCN(CCCNC(=O)Cn2nc(-c3ccccc3)ccc2=O)CC1,-8%
CC1(C)CC(=O)C=C(Nc2ccccc2NC(=O)c2cnccn2)C1,-6%
C=C(C)Cn1c(SCC#N)nc2ccccc2c1=O,-15%
CCOC(=O)c1cccc(COC(=O)c2cccc(-c3nnc(-c4ccccc4)o3)c2)c1,-25%
CC(/C=C/c1ccccc1)=N\NC(=O)CNC(=O)c1ccccc1Cl,-1%
COC(=O)c1ccc(CSc2nnc(CNC(=O)c3cccs3)o2)o1,-13%
Cc1ccc(C(=O)NNC(=O)C2CCN(S(=O)(=O)c3ccc(Cl)cc3)CC2)cc1,0%

# 22 structures already listed, sorted by SMILES length, ascending:
SMILES,HPGD inh
CCNC(=S)NCCN1CCCCC1,0%
CNC(=O)Nc1ccc2snnc2c1,?
Cc1cc(C)nc(SCCC(=O)N(C)C)n1,-15%
CCC(C)NC(=O)c1c(C)cc(=O)oc1C (configuration not stated),-17%
C=C(C)Cn1c(SCC#N)nc2ccccc2c1=O,-15%
COCC(C)NC(=O)NC(=O)c1ccc(Cl)cc1 (configuration not stated),-2%
COc1ccc(C(=O)n2nnc3ccccc32)cc1OC,-12%
COC(=O)Cn1nc(-c2ccccc2)c2ccccc2c1=O,-5%
O=C(CN1CCc2ccccc21)NCc1ccc2c(c1)OCO2,-18%
CN1CCC2(CC1)CCN(S(=O)(=O)c1ccccc1)CC2,-3%
C(=C\c1cc(/C=C/c2ccccc2)ncn1)/c1ccccc1,?
CCc1ccc(NC2=NC(C(=O)c3ccccc3)CC(=O)N2)cc1 (configuration not stated),-13%
CCCN1C(=S)SC(C)(C)C1/[N+]([O-])=C/c1cccnc1 (configuration not stated),-13%
CC(/C=C/c1ccccc1)=N\NC(=O)CNC(=O)c1ccccc1Cl,-1%
CCOc1cc(C(=S)N2CCOCC2)ccc1OS(=O)(=O)c1ccccc1,-12%
COc1ccc(S(=O)(=O)N2CCN(C(=O)NCc3ccccc3)CC2)cc1,-11%
COc1ccccc1CNC(=O)C1CCN(S(=O)(=O)c2c(C)noc2C)CC1,-8%
COc1ccccc1N1CCN(CC(O)COc2ccc3c(C)cc(=O)oc3c2)CC1 (configuration not stated),?
O=C(CSc1ncccc1-c1nc2ccccc2[nH]1)N1CCN(c2ccccc2F)CC1,?
Cc1ccc(C(=O)NNC(=O)C2CCN(S(=O)(=O)c3ccc(Cl)cc3)CC2)cc1,0%
Cc1cccn2c(=O)c3cc(C#N)c(=NC(=O)c4ccncc4)n(Cc4ccco4)c3nc12,?
COc1ccc(/C=C2\CCCC3C2=NN(C(=O)CSc2ncn[nH]2)C3c2ccc(OC)cc2)cc1 (configuration not stated),-21%

# This is a subset. The share of hits here may be higher or lower than overall.
